Source: PubChem BioAssay
PrP UTR inh = inhibition of PrP 5' UTR reporter expression; inhibition, % (no concentration beside the values); 0.35% of 340,000 active; cell-based PrP 5' UTR mRNA reporter, plate reader;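 active = every replicate at 50% or more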;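 note: 0 = median of the neutral control wells; tested in H4 reporter cells; numbers are from one replicate; inactives centre near -14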
Sa RN4220 lethal = growth inhibition of S. aureus RN4220, primary screen, OD600; inhibition, % (no concentration beside the values); 16 h; 0.33% of 330,000 active;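 active = z-score of -3 or lower and OD600 up to 0.18 on both plates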;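 note: plate controls were untreated cells for no effect and reference antibiotic for full effect; stock transfer was 100 nL into about 80 µL; one replicate is shown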
Mtb hypoxia inh = PubChem AID 1159583; M. tuberculosis hypoxia-regulated fluorescent reporter, fluorescence; fluorescence inhibition, % (concentration not given with the values); 0.1% of 300,000 active;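 active = 35 to 45% if threefold the growth effect, above 45% if 1.5-fold the growth effect; inactive = the rest, general growth blockers included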;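 note: wells of about 50 µL received 100 nL stock; 0% = vehicle wells and 100% = reference inhibitor wells; whole bacteria with a GFP reporter of the hypoxia response; strong numbers were not always called active; many hits fall short of the cut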
ugtP null kill = growth inhibition of ugtP-null S. aureus, primary screen, RN4220 ugtP deletion, OD600. growth inhibition, % (no concentration beside the values). 0.54% of 330,000 active. 16 h; some inactives read as strong as hits;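 active = z-score under -3 and OD600 up to 0.15 on both plates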;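 note: plate controls were untreated wells for no effect and antibiotic for full effect; wells of about 80 µL received 100 nL stock; the first replicate is given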
BJeLR viability = MLPCN primary cell-based screen for lethality selective to Ras in HRASV12 cells | BJeLR (HRASV12) viability, CellTiter-Glo ATP luminescence, 48 h; reference of the scale not given here | inhibition, % (test concentration not listed) | 0.17% of 300,000 active | AID 1554, 2009;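 active = replicate mean above 50%; inconclusive = above 50% but judged a plate artefact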;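 note: 50 nL library stock added to about 25 µL; numbers are from one replicate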
Bead autofluor = counter-screen for toxin protease inhibitors: compound fluorescence; compound autofluorescence counterscreen, microsphere flow cytometry; stronger effect = higher value; fluorescence intensity (test concentration not listed); 3.1% of 360,000 active; AID 624483;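 active = at least 3 SD above the mean of all compounds, about 16000 in these data; inconclusive = too few beads counted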;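 note: 100 nL of 1 mM stock went into each well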
Mtb hypoxia inh growth = recorded beside Mtb hypoxia inh, whose call it bears; growth inhibition, %; measured here: M. tuberculosis growth (absorbance);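 0% = vehicle and 100% = reference antibiotic; read after six days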
Starred values were filed as active, the others as inactive; ? = inconclusive; . = no result given; & = joins results of further samples. Rows were taken by chance; overall some 4% were active at least once.

SMILES | PrP UTR inh | Sa RN4220 lethal | Mtb hypoxia inh | Mtb hypoxia inh growth | ugtP null kill | BJeLR viability | Bead autofluor
CCC(CCC(=O)Nc1ccn(-c2ccccc2)n1)C(=O)O (stereo not given) | -13 | 5.5 | 12 | 5 | -2 | 5 | 2918
Cc1nn(C)cc1S(=O)(=O)Nc1ccc(F)c(F)c1 | -5 | 3.3 | -2 | -4 | 11 | 0 | 4884
CCc1cc(C(=O)COc2ccccc2F)c(O)cc1O | -29 | 16 | 9 | 10 | -9 | . | 18558*
Cc1cc(C)n2nc[n+](C)c2n1 | 46 | 0.6 | . | . | -2 | -2 | 4122
CCn1c(CCNC(=O)c2cccs2)nnc1SCC(=O)NC1CCCCC1 | 30 | 7.1 | 9 | 2 | 0 | 6 | 21522*
O=C(COc1ccccc1-c1ccccc1)NCc1ccco1 | -20 | 6.8 | 4 | 5 | 0 | -4 | 6692
O=C(Oc1ccc(OC(=O)N2CCCCC2)cc1)N1CCCCC1 | . | 4.1 | 9 | 6 | 11 | -1 | .
COc1ccc(-c2csc(=NCCO)n2-c2ccccc2)cc1 | -28 | 1.7 | 3 | -2 | 6 | 5 | 4172
CCCCN(C)Cc1cc(=O)oc2ccc3ccccc3c12 | -7 | 3.5 | 3 | 3 | -14 | 3 | 3678
Cc1ccc(SCC2(O)CCN(S(=O)(=O)c3ccc(Cl)cc3)CC2)cc1 | -29 | 15 | 19 | 15 | -9 | 1 | 4548

Overlap with the part before: 7 entries, then new ones.
SMILES | PrP UTR inh | Sa RN4220 lethal | Mtb hypoxia inh | Mtb hypoxia inh growth | ugtP null kill | BJeLR viability | Bead autofluor
Cc1cc(C)n2nc[n+](C)c2n1 | 46 | 0.6 | . | . | -2 | -2 | 4122
CCn1c(CCNC(=O)c2cccs2)nnc1SCC(=O)NC1CCCCC1 | 30 | 7.1 | 9 | 2 | 0 | 6 | 21522*
O=C(COc1ccccc1-c1ccccc1)NCc1ccco1 | -20 | 6.8 | 4 | 5 | 0 | -4 | 6692
O=C(Oc1ccc(OC(=O)N2CCCCC2)cc1)N1CCCCC1 | . | 4.1 | 9 | 6 | 11 | -1 | .
COc1ccc(-c2csc(=NCCO)n2-c2ccccc2)cc1 | -28 | 1.7 | 3 | -2 | 6 | 5 | 4172
CCCCN(C)Cc1cc(=O)oc2ccc3ccccc3c12 | -7 | 3.5 | 3 | 3 | -14 | 3 | 3678
Cc1ccc(SCC2(O)CCN(S(=O)(=O)c3ccc(Cl)cc3)CC2)cc1 | -29 | 15 | 19 | 15 | -9 | 1 | 4548
CCCCC(CC)C(=O)Nc1ccc(S(=O)(=O)N2CCCC2)cc1 (stereo not given) | -14 | 3.1 | 3 | 2 | 3 | -3 | 3584
COc1ccccc1C(C(=O)NCc1ccc(F)cc1)N(C(=O)c1csnn1)C1CC1 (stereo not given) | -7 | 1.3 | 17 | 6 | 7 | -5 | 5514
CC(C)C(=O)ON=C(N)c1ccc(Oc2ccc(Cl)cc2)c([N+](=O)[O-])c1 | . | -7.5 | -8 | -5 | -4 | . | .
COc1ccc(OCC(=O)OCC(=O)Nc2ccc3[nH]c(=O)[nH]c3c2)cc1 | -28 | 4.2 | 13 | -1 | 1 | . | 3981
CC1CCc2nc3ccc(S(=O)(=O)N4CCC(C(=O)N5CCCCCC5)CC4)cc3c(C(=O)O)c2C1 (stereo not given) | 7 | 5.1 | 6 | -1 | 8 | -6 | 3571
CCSc1nc2ccccc2n1Cc1nc(N)nc(N(C)C)n1 | -10 | 2.0 | -14 | -10 | -4 | 4 | 10929
CCCC(=O)Nc1cc2c(cc1C(=O)c1ccccc1)OCCO2 | -16 | 1.5 | . | . | 3 | 8 | 2793
O=C(Nc1ccccc1C(=O)OCC(=O)c1c[nH]c2ccccc12)c1ccco1 | -20 | 12 | 5 | 2 | -20 | 0 | 7964
CS(=O)(=O)Cc1nc2ccccc2oc1=O | -20 | 5.9 | . | . | -5 | 4 | 4943
Cc1ccc(N2CCCC2=O)cc1S(=O)(=O)N1CCOCC1 | -25 | -1.0 | -1 | -5 | 4 | 9 | 5826
CC1(C)CC(N2CCN(c3ccccc3)CC2)=CC(=[N+]2CCCC2)C1 | -17 | -0.2 | 2 | 6 | -1 | 22 | 8853
COc1cc(CC(=O)OCC(=O)Nc2ccc(N(C)C)cc2)cc(OC)c1OC | -13 | 0.6 | 4 | -1 | 2 | . | 4663
COc1cccc(CN2CCN(C(=O)c3ccc(-c4ccccc4)cc3)CC2)c1 | -2 | -0.9 | -6 | -4 | -10 | -6 | 2596
COC(=O)C1(C)NC(c2ccccc2OC)C2C(=O)N(c3ccccc3)C(=O)C21 (stereo not given) | -27 | 2.1 | 20 | 1 | 5 | -2 | 2930
CSc1ccc(CN(C)CC(=O)NCCc2ccccc2)cc1 | -9 | 2.9 | 10 | -4 | 1 | -9 | 3529
Cc1cc(C)nc(SCc2nnc(SCC(=O)N3CCCc4ccccc43)n2C)n1 | -5 | 6.0 | 3 | -5 | 10 | 8 | 7454
COc1ccc(N2C(=O)CC(Sc3nnc(-c4ccccc4F)n3C)C2=O)cc1 (stereo not given) | -19 | 2.5 | -5 | -7 | 4 | -8 | 4849
CCOc1ccc(CN(C)C(=O)c2cccc(S(=O)(=O)N3CCCC3)c2)cc1OC | -14 | 0.2 | -1 | 2 | 0 | . | 4520
COC(=O)C1=C(c2cccc(OC)c2OC)CC2CCC1N2C(=O)NCc1ccc(F)cc1 (stereo not given) | . | 1.9 | 0 | 10 | 4 | . | .
O=C(CCC1CCN(C(=O)c2cc(C(F)(F)F)ccc2Cl)CC1)NC1CC1 | -13 | 3.8 | -4 | 2 | 1 | -6 | 4206
CCCCn1c(C)csc1=Nc1cccnc1 | -56 | -0.7 | 18 | 6 | -6 | 5 | 2428
Cc1ccc(C2C(C#N)=C(N)Oc3n[nH]c(-c4cccs4)c32)cc1 (stereo not given) | -30 | 9.5 | 8 | 11 | -8 | 10 | 2846
COc1ccc2oc(=O)cc(CN3CCOCC3)c2c1 | -11 | 0.9 | -2 | -4 | 4 | 2 | 4179
CC(=O)Oc1ccc(C(=O)[C@H]2[C@H]3C(=O)N(c4ccc5ccccc5c4)C(=O)[C@H]3[C@@H]3C=CC=NN32)cc1 | -17 | . | . | . | . | -5 | 10788
COC(=O)C1=C(c2cccc(Cl)c2)CC2CCC1N2C(=O)NCC1CC1 (stereo not given) | . | 2.7 | 10 | 13 | -8 | . | .
O=C(Nc1cc(S(=O)(=O)N2CCCCC2)ccc1N1CCOCC1)c1ccc(C(F)(F)F)cc1 | -9 | 1.4 | -4 | 3 | 1 | . | 3919
O=C1CCCN2N=C(SCC(=O)Nc3nc4ccccc4s3)SC2=N1 | 19 | 7.5 | 14 | 1 | -21 | -11 | 4937
O=C1C(NS(=O)(=O)c2ccc(Br)cc2)=C(N2CCCCC2)C(=O)c2ccccc21 | -2 | 14 | -9 | 2 | -17 | 1 | 4165
CCOC(=O)Cn1cnc2sc(C(=O)OC)c(C)c2c1=O | -22 | 3.8 | -6 | -1 | 3 | -10 | 2216
CCOc1cc(NC(=O)C2CC2)c(OCC)cc1NC(=O)c1cc(OC)c(OC)c(OC)c1 | -2 | 1.6 | -16 | -1 | 5 | -2 | 5281
Cc1cc(C(=O)NCCC2=CCCCC2)no1 | -90 | . | . | . | . | 2 | 25954*
COC(=O)C1=C(C)NC(C)=C(C(=O)OC)C1C(=O)OC(C)C(=O)c1ccccc1 (stereo not given) | -20&-12 | -5.4&3.7 | -12&5 | -5&0 | -8&-3 | -1 | 3578&3344
O=C(COc1ccc(S(=O)(=O)N2CCOCC2)cc1)Nc1ccccc1Cl | -18 | -5.0 | 15 | 5 | 0 | -17 | 5771
Cn1c(-c2cccc([N+](=O)[O-])c2)cnc1NCc1cccc(F)c1 | -53 | 1.0 | -7 | 11 | -6 | -6 | 3712
O=C(O)c1ccccc1NN=Cc1c(Sc2nnnn2-c2ccccc2)nc2ccccn2c1=O | . | 7.1 | 5 | -6 | 1 | . | .
Fc1ccc(OCCOCCNCC2CCCO2)cc1 (stereo not given) | -12 | 6.6 | . | . | 12 | 8 | 3500
O=C(O)CCn1cc(C=C2SC(=S)NC2=O)c(-c2ccccc2)n1 | . | 1.8 | 0 | -7 | -6 | . | .
CCC(=O)Nc1ccc2c(c1)nc(CCN1CCN(c3ccccn3)CC1)n2C | 7 | 4.0 | 1 | 7 | 4 | -5 | 3385
CCOc1ccc(Br)cc1C1=CC(=O)CC(c2ccc(OC)cc2)C1 (stereo not given) | . | 4.7 | 12 | 5 | 9 | . | .
CCOc1c2ccc(C(=O)NCc3ccc(C)cc3)cc2nn1CCOC | -3 | 3.4 | 12 | 9 | -1 | -1 | 3805
CCOc1ccc(CNC(=O)CCn2c(=O)oc3ccccc32)cc1 | -12 | 4.8 | 4 | 0 | 12 | 5 | 16172*
Cc1cc(C)cc(OCC(=O)N(C)CC(=O)Nc2ccc(Cl)c(C(F)(F)F)c2)c1 | -30 | -4.3 | 10 | 7 | -20 | . | 8940
CC(C)(C)c1ccc(C(CC(=O)O)NC(=O)Cc2ccc(Cl)cc2)cc1 (stereo not given) | -13 | 4.0 | 8 | 9 | 4 | 4 | 3992
CCN(CC(=O)NCc1cccs1)C(=O)c1cccc(Cl)c1 | -8 | 0.3 | 1 | -2 | 6 | . | 2938
Cc1cc(C)nc(SCC(=O)N/N=C/c2cccs2)n1 | -28 | . | . | . | . | -8 | 2608
COc1cccc(-c2csc(NC(=O)Oc3ccccc3)n2)c1 | 6 | 2.2 | -4 | -8 | 19 | 7 | 8010
COc1ccc(S(=O)(=O)NC(C)C)cc1C(=O)NC1CCCCC1 | -12 | 5.5 | 6 | 11 | 3 | 11 | 2053
Nc1cc(N)nc(SCC(=O)NCc2ccco2)n1 | -15 | 14 | 3 | 3 | 7 | -2 | 3867
COc1ccc(NC2CC(=O)N(C)C2=O)cc1 (stereo not given) | -45 | 3.3 | 12 | 5 | 5 | 2 | 5184
O=C(CSc1nnc(CNC(=O)c2c(F)cccc2Cl)o1)Nc1ccc2c(c1)OCCO2 | -16 | 0.1 | . | . | 6 | 10 | 4496
Carrying on:
SMILES | PrP UTR inh | Sa RN4220 lethal | Mtb hypoxia inh | Mtb hypoxia inh growth | ugtP null kill | BJeLR viability | Bead autofluor
CCOC(=O)c1cc2c(nc1N)CC(C)(C)OC2 | -21 | -0.5 | 6 | 13 | -4 | 0 | 2997
CN(/N=C/c1ccncc1)C1=NS(=O)(=O)c2ccccc21 | -7 | . | . | . | . | -3 | 2588
Cc1nc(C)c2c(=O)cc(-c3ccccc3)[nH]c2n1 | -25 | -1.4 | 6 | 14 | 0 | 22 | 11230
CCN(CC)CCOC(=O)c1ccc(NC(=O)C(C)NC(=O)C23CC4CC(CC(C4)C2)C3)cc1 (stereo not given) | -8 | -6.6 | -3 | 8 | -1 | 3 | 2438
Cc1noc(C)c1S(=O)(=O)N(C)C[C@H]1Oc2ccc(NS(=O)(=O)c3cn(C)cn3)cc2C(=O)N([C@H](C)CO)C[C@@H]1C | 4 | 1.9 | -4 | 4 | 3 | . | 2996
CCOCCCNC(=S)N(CCCN(C)C)Cc1cc2cc3c(cc2[nH]c1=O)OCCO3 | -21 | 4.9 | 3 | 4 | 7 | -8 | 3011
CCn1cc(S(=O)(=O)Nc2nc3ccc(OC)cc3s2)cn1 | 2 | 5.9 | 8 | 1 | 17 | -1 | ?
CC(CCc1ccccc1)NC(=O)/C=C/c1ccccc1 (stereo not given) | 5 | 0.2 | . | . | 5 | -8 | 3607
Nc1ncnc2c1ncn2CCc1ccccc1 | -33 | 1.8 | -1 | 0 | 2 | -4 | 4302
C=CCN1C(=O)c2ccc(C(=O)N3CCN(S(=O)(=O)c4ccccc4Br)CC3)cc2C1=O | -3 | 3.6 | 8 | 12 | 13 | -9 | 5604
CCCn1c(C2CC(=O)N(c3ccc(C)cc3)C2)nc2ccccc21 (stereo not given) | -17 | 8.0 | 12 | 12 | -13 | -3 | 9612
Cn1cnc(S(=O)(=O)Nc2ccccc2N2CCOCC2)c1 | . | 3.1 | 16 | 8 | 8 | 2 | .
CCCC(C)C(=O)Nc1ccccc1C(=O)OCC (stereo not given) | -9 | 2.5 | . | . | 11 | 0 | 2691
Cc1cc(C)n(CC(O)COc2ccc(F)cc2)n1 (stereo not given) | -15 | 0.0 | 8 | 0 | 5 | -5 | 3784
COc1cc(N)c(Cl)cc1C(=O)OCC(=O)NCC1CCCCC1 | 0 | 2.4 | 13 | 7 | 0 | . | 3017
